Screening results deposited in PubChem by several laboratories.
Arbovirus inh – arbovirus infection inhibition | arbovirus infection cell-based antiviral screen | inhibition, % at 10 µM | actives 0.37% (n = 200,000);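 active = inhibition from about 30%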;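 note: bluetongue infection of BSR cells; cell survival read as ATP light after 72 h; 0% = infected wells without compound and 100% = uninfected wells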
RecA intein inh – inhibitors of M. tuberculosis RecA intein splicing; P9WHJ3; cell-free RecA intein splicing, fluorescence; inhibition, %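 (about 9 µM by stock and volumes)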; actives 0.75% (n = 290,000); AID 2221; in the data active = inhibition above about 30%; inconclusive = no clear call, values can overlap the other calls;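 note: 0% = vehicle wells and 100% = reference inhibitor control wells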
Target sequence (P9WHJ3 whole entry, looked up): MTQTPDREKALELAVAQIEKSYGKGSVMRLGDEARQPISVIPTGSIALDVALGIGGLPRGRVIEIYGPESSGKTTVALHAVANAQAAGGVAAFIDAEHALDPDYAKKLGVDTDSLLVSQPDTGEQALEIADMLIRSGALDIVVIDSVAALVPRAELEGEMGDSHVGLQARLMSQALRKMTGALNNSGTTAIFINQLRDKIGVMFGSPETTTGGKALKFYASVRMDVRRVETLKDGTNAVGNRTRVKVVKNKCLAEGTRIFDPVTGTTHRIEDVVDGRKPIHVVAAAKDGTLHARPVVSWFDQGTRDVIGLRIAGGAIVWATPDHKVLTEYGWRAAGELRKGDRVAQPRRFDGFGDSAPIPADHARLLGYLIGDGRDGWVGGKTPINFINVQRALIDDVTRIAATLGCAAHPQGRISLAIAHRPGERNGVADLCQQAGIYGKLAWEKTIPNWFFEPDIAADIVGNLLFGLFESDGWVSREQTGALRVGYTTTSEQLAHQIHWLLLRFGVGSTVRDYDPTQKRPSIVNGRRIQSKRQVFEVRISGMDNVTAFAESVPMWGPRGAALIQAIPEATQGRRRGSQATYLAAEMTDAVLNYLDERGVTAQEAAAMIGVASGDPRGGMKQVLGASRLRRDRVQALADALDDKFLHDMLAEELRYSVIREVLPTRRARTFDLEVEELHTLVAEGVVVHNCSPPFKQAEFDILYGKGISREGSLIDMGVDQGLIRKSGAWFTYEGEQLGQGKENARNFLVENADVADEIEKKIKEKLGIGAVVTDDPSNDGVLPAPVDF
YopH inh – YopH (Yersinia) phosphatase inhibition; inhibition, %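 (about 10 µM by stock and volumes)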; fluorescence Ex485/Em525; actives 0.16% (n = 140,000);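 active = inhibition of 50% or more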;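 note: controls were vehicle for no effect and minimum signal wells for full effect; inactives centre near -20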
Mtb H37Rv – M. tuberculosis H37Rv growth inhibitors, H37Rv strain (AID 1626). M. tuberculosis H37Rv growth inhibition; higher % means a stronger effect. inhibition, % at 10 µM; hits with a dose series show IC50 in µM. actives 0.95% (n = 220,000);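 active = confirmed in a dose series; inconclusive = inhibition above 80% but not taken into the dose series; inactive = below 80% or under 30% at every dose of the series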;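 note: bacteria incubated seven days before Alamar blue readout; 0% = bacteria only wells and 100% = bacteria with antibiotic wells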
Mtb betalactam – beta-lactam sensitization of Mtb H37Rv; M. tuberculosis H37Rv growth with meropenem, percent inhibition; hits of this screen are not shown here; inhibition, % at 25 µM; actives 0.27% (n = 330,000); AID 434955;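 active = about 74% or more and at least 40 points above the plate without the antibiotic, then above 30% in a dose series; inconclusive = first-round hits that could not be retested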;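 note: growth measured after seven days incubation then overnight dye step; 0% = bacteria only wells and 100% = bacteria with antibiotic; twin plates without the antibiotic show which effects depend on it; some results filed as inactive read as strong as hits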
Arbovirus inh repeat – recorded beside Arbovirus inh, whose call it bears; inhibition, %; measured here: 10K subset replicate screen; many hits read low in the repeat;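 first of two repeat runs on a subset; 0% = infected and 100% = uninfected wells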
* marks the source's active call; other numbers are inactive results; ? = inconclusive; . = no result given. Only part of the results is shown; rates above refer to the full screens.

SMILES	Arbovirus inh	RecA intein inh	YopH inh	Mtb H37Rv	Mtb betalactam	others
COC(=O)Cn1c(CN(Cc2ccccc2)Cc2ccccc2)nc2c1c(=O)[nH]c(=O)n2C	5	0.5	-35	-2%	-5
CC(C)N(Cc1ccccc1)C(=S)Nc1ccc(F)cc1	4	0.7	.	5%	-4
Cc1sc2ncnc(SCC(=O)NNC(=O)c3ccco3)c2c1C	13	0.2	.	-4%	6
COC(=O)CSc1ccc2nnc(CCNS(=O)(=O)c3ccc(C)cc3)n2n1	3	-0.4	.	-2%	-5
CCCN1CCN(C(=O)c2ccc(Sc3ccc(C)cc3)c(NC(C)=O)c2)CC1	-1	-0.3	-27	4%	-6
CC1CCCN(C(=O)NC(=O)c2ccc(Cl)cc2)C1 (stereo unspecified)	.	1.4	.	.	-11
O=C(Nc1nc(-c2cc3ccccc3o2)cs1)c1ccc(S(=O)(=O)N2CCCC2)cc1	1	-6.3	-18	-4%	-8
CCOc1ccc(-c2nnn(CC(=O)NCc3ccccc3)n2)cc1	-2	-1.2	.	2%	2
Cc1ccc(NC(=S)N(CCCN2CCCC(C)C2)Cc2ccco2)cc1C (stereo unspecified)	-3	0.9	.	7%	5
Cc1ccc(-n2nnnc2SCC(=O)Nc2cccc(NC(=O)c3ccco3)c2)cc1C	-19	9.8	-40	13%	-2
COc1ccc(-n2c(C)cc(=O)c3c2CC(C)(C)CC3=O)cc1	8	0.2	-5	3%	-8
Cc1cc(CCCCCCCCc2cc(C)cc(=O)o2)oc(=O)c1	-2	-3.0	-9	6%	3
Cc1ccc(Oc2ccc(OCC(=O)NC(CC(C)C)C(=O)O)cc2)cc1 (stereo unspecified)	11	0.5	.	-19%	2
CC(=O)C1=C(c2ccccc2)NC(=S)NC1c1ccc(O)c(O)c1 (stereo unspecified)	-7	3.6	.	0%	-7
NC1=NC(=O)/C(=C/c2ccc(OCC(=O)O)cc2)S1	.	2.1	.	.	8
Cn1c(CN2CCOCC2)nnc1SCc1ccc(C#N)cc1	1	-0.8	.	-3%	-5
CCCNC(=O)N1CCN(Cc2ccco2)CC1	3	-4.7	.	2%	-5
COc1ccccc1N1CCN(C2CCCN(C(=O)c3cscn3)C2)CC1 (stereo unspecified)	.	-1.1	.	.	2
CN(C)S(=O)(=O)c1ccc2c(c1)C(CC(=O)O)OC2=O (stereo unspecified)	0	5.6	-17	-11%	?
O=CC(Cl)P(=O)(N1CCOCC1)N1CCOCC1 (stereo unspecified)	.	1.7	.	-13%	-5
O=C1C2C3C=CC(CC3)C2C(=O)N1c1ccc(Cl)cc1 (stereo unspecified)	.	-4.8	.	.	10
COc1ccc(/C=N/NC(=O)c2cccnc2)cc1COc1ccc(NC(C)=O)cc1	.	-1.1	.	-3%	-4
Cc1cc(Br)cc2c1NC(=O)C2(O)CC(=O)c1ccco1 (stereo unspecified)	-7	2.2	.	3%	6
COc1ccc(CN2CCN(S(=O)(=O)c3ccc(F)cc3)CC2)c(OC)c1OC	5	-3.4	-19	0%	6

Part of the list above in order of length of the SMILES, smallest number first:
SMILES	Arbovirus inh	RecA intein inh	YopH inh	Mtb H37Rv	Mtb betalactam	others
CCCNC(=O)N1CCN(Cc2ccco2)CC1	3	-4.7	.	2%	-5
O=CC(Cl)P(=O)(N1CCOCC1)N1CCOCC1 (stereo unspecified)	.	1.7	.	-13%	-5
CC1CCCN(C(=O)NC(=O)c2ccc(Cl)cc2)C1 (stereo unspecified)	.	1.4	.	.	-11
NC1=NC(=O)/C(=C/c2ccc(OCC(=O)O)cc2)S1	.	2.1	.	.	8
Cc1cc(Br)cc2c1NC(=O)C2(O)CC(=O)c1ccco1 (stereo unspecified)	-7	2.2	.	3%	6
CCOc1ccc(-c2nnn(CC(=O)NCc3ccccc3)n2)cc1	-2	-1.2	.	2%	2
CN(C)S(=O)(=O)c1ccc2c(c1)C(CC(=O)O)OC2=O (stereo unspecified)	0	5.6	-17	-11%	?
COc1ccc(-n2c(C)cc(=O)c3c2CC(C)(C)CC3=O)cc1	8	0.2	-5	3%	-8
CC(=O)C1=C(c2ccccc2)NC(=S)NC1c1ccc(O)c(O)c1 (stereo unspecified)	-7	3.6	.	0%	-7
Cc1ccc(Oc2ccc(OCC(=O)NC(CC(C)C)C(=O)O)cc2)cc1 (stereo unspecified)	11	0.5	.	-19%	2
COC(=O)CSc1ccc2nnc(CCNS(=O)(=O)c3ccc(C)cc3)n2n1	3	-0.4	.	-2%	-5
COc1ccc(CN2CCN(S(=O)(=O)c3ccc(F)cc3)CC2)c(OC)c1OC	5	-3.4	-19	0%	6
COc1ccc(/C=N/NC(=O)c2cccnc2)cc1COc1ccc(NC(C)=O)cc1	.	-1.1	.	-3%	-4
Cc1ccc(-n2nnnc2SCC(=O)Nc2cccc(NC(=O)c3ccco3)c2)cc1C	-19	9.8	-40	13%	-2
O=C(Nc1nc(-c2cc3ccccc3o2)cs1)c1ccc(S(=O)(=O)N2CCCC2)cc1	1	-6.3	-18	-4%	-8

(listing goes on)
SMILES	Arbovirus inh	RecA intein inh	YopH inh	Mtb H37Rv	Mtb betalactam	others
COc1ccc(C(c2sc3nc(C)nn3c2O)N2CCC(O)CC2)cc1OC (stereo unspecified)	10	5.2	-38	1%	0	Arbovirus inh repeat=0
CC(C)C1Nc2ccc(S(N)(=O)=O)cc2C2C=CCC21 (stereo unspecified)	6	9.3	-25	5%	-7
CCN(CC)S(=O)(=O)c1cc(NC(=O)CSc2nccn2C)ccc1C	11	-1.2	.	-1%	-3
c1cc(CCN2CCCC2)ccn1	.	-1.0	.	-13%	-6
CN(C)C(=O)/C(=C\c1cccc(Oc2ccccc2)c1)NC(=O)c1ccccc1	-3	-1.4	-22	4%	5
O=C(COC(=O)C1CCN(S(=O)(=O)c2ccc3c(c2)OCCO3)CC1)Nc1cccc2ccccc12	0	1.1	-30	-5%	12
CCC(=O)N1c2ccccc2NC2=C(C(=O)CCC2)C1c1ccco1 (stereo unspecified)	6	-1.0	.	-4%	-3
CCOC(=O)/C=C/C(=O)Nc1ccc(S(=O)(=O)N2CCc3ccccc32)cc1	.	-0.4	.	.	1
CCCCCC(=O)NC(=S)Nc1ccc(N2CCOCC2)cc1	1	-1.2	2	11%	41
COc1ccc(NC2CCCN(C(=O)c3ccc4nc(C)c(C)nc4c3)C2)cc1OC (stereo unspecified)	.	-1.4	.	.	8
Cn1nc(C(F)(F)F)c(C(=O)Nc2ccc(Cl)cc2)c1Cl	2	-0.2	-39	-6%	-8
CCCC[C@H](CN(N=O)[C@@H](Cc1ccccc1)CN(C)N=O)N(CCc1ccccc1)N=O	5	5.3	.	-1%	-10
COc1cc(NC(=O)CN2C(=O)NC(C)(c3ccc4ccccc4c3)C2=O)c(C)cc1[N+](=O)[O-] (stereo unspecified)	2	6.1	-22	33%	68
CCCc1nc(NCc2ccccn2)c2nnn(Cc3ccccc3F)c2n1	1	8.0	14	.	52
CCOc1ccc(OCC)c(S(=O)(=O)NCCOC23CC4CC(CC(C4)C2)C3)c1	-3	7.9	-11	16%	9
COc1ccc(CNC(=O)[C@@H](C)NC(=O)C2CCN(C(=O)[C@@H](N)CCSC)CC2)cc1	.	1.1	.	.	5
CC1(C)CC(CC(=O)O)CC(C)(C)N1	3	0.6	.	2%	-8
NC(=O)c1ccc2c(c1)S(=O)(=O)c1ccccc1C2=O	.	-1.4	.	4%	-9
CS(=O)(=O)N(CC(=O)N1CCN(c2ccccc2F)CC1)c1ccc2c(c1)OCCO2	1	0.4	2	-7%	-3
CC1OC2(OC1C)C(=O)Nc1ccccc12 (stereo unspecified)	-2	4.2	-2	-11%	-3
CCCCn1c(SCC(=O)NC2CCS(=O)(=O)C2)nc2cc(S(N)(=O)=O)ccc21 (stereo unspecified)	10	0.2	.	3%	-2
CCCCOC(=O)c1ccc(O)cc1	0	0.3	-40	67%	-18
COC(=O)c1ccc(OC(=O)CCN2C(=O)C3CCCCC3C2=O)cc1 (stereo unspecified)	2	6.8	-17	8%	3
CNC(=O)c1ccccc1Sc1ccccc1C#N	19	-0.9	.	0%	1
CCOc1cc(NC(=O)c2ccccn2)c(OCC)cc1NC(=O)c1ccc(OC)cc1	-13	-4.0	.	-7%	-8
CCCc1nnc(NC(=O)Nc2ccc(OC)cc2)s1	2	0.1	.	-1%	-3
COc1cc(NC(=O)c2ccc(NS(=O)(=O)c3c(C)noc3C)cc2)cc(OC)c1	0	-0.2	-10	-12%	-11
COc1ccc(OC)c(-n2c(-c3ccccc3)n[nH]c2=S)c1	0	3.0	-26	-4%	1
C/C(=N\NC(=O)c1sccc1-n1cccc1)c1cccs1	1	-1.4	.	-1%	3
COc1ccc(F)cc1S(=O)(=O)NC1CCCC1	2	-4.1	-4	-1%	1
CCOc1cc(CNCc2cccs2)cc(Br)c1OC	1	1.0	-22	-1%	1
CC(C)(O)c1cn(-c2nonc2N)nn1	5	-4.2	-12	-19%	0
Cc1ccc(Cn2nnc3c(=O)n(CC(=O)N4CCCc5ccccc54)cnc32)cc1	5	-0.1	-33	-8%	0
Fc1cccc(Nc2ncnc3sc4c(c23)CCC4)c1	12	-2.5	-7	14%	58
CC(C)Sc1nc2sc3c(c2c2nnc(SCC(=O)NCc4ccco4)n12)CCCC3	-2	9.1	-45	-5%	-10
COc1ccc(C(=O)NCC(=O)OCC(=O)c2ccc3c(c2)OCCO3)cc1	1	-0.9	-20	-11%	0
COC(=O)c1cnc(NNS(=O)(=O)c2ccc(C(F)(F)F)cc2)nc1C(F)(F)F	.	-7.1	.	-5%	0
Cc1cccc(Nc2nc(N)nc(CCl)n2)c1	.	23	.	?	98
O=C(COC(=O)c1ccccc1)Nc1ccccc1Sc1ccccc1	-2	1.3	-11	-3%	10
CCOC(=O)Cc1cc(-c2ccccc2)nc2ccc3ccccc3c12	4	1.1	-35	.	86
N/C(Cc1nc2ccccc2s1)=N\O	.	0.7	.	1%	2
CC1CCCN(C(=O)COC(=O)Cc2c(F)cccc2Cl)C1 (stereo unspecified)	.	0.3	.	.	-4
CCc1nnc(N/N=C/c2cc(Br)c(O)cc2O)n1N	.	40*	.	.	3
O=C(CC(Sc1ccc(Br)cc1)C(=O)O)c1ccc(Br)cc1 (stereo unspecified)	.	6.0	.	.	?
CCOc1ccc(NC(=O)CN(C)C(=O)c2cc(S(=O)(=O)N3CCCCC3)ccc2C)cc1OCC	.	-1.4	.	.	4
COC(=O)c1c(NS(=O)(=O)c2cccs2)sc2c1CCCC2	9	-0.6	-19	-1%	1
CCOC(=O)c1c(C)[nH]c(C)c1S(=O)(=O)NCC(=O)Nc1ccccn1	.	-4.0	.	.	1
COc1cccc(C2Nc3ccc4ccccc4c3C3=C2C(=O)CC(C)(C)C3)c1OCC(=O)O (stereo unspecified)	.	-374	.	.	-21
CCCCN1c2ccccc2N(CCCO)c2cc(C)nnc21	-1	0.9	-29	1%	-4
Cc1c(NC(C)c2cc(Cl)ccc2O)c(=O)n(-c2ccccc2)n1C (stereo unspecified)	0	1.9	-28	-7%	-11
CC1SC(C)C(=O)N(CC(=O)NCc2ccc(F)cc2)C1=O (stereo unspecified)	2	1.2	-31	1%	-7
Cn1cc(CN2CCC[C@H]2CO)c(-c2cccc(Cl)c2)n1	-3	0.2	.	-4%	0
CC(C)CCNC(=O)c1onc(CSc2ccccn2)c1C(=O)NCCC(C)C	.	2.7	.	32%	11
CCOc1ccc(CN2CCNC(=O)C2CC(=O)NCCc2cnccn2)cc1 (stereo unspecified)	.	2.0	.	.	2
COc1cc2c(cc1OC)C(=O)Cc1ccc3c(c1CN(C)CC2)OCO3	0	0.0	.	-4%	0
CCOC(=O)/C(=C\Nc1ccc(OC(F)(F)F)cc1)Sc1ncc(C(F)(F)F)cc1Cl	10	1.8	-8	5%	7
N#Cc1ccc(OCc2cccc(S(=O)(=O)N3CCOCC3)c2)cc1	.	-0.7	.	.	-16
N#Cc1ccc(NC(=O)C2CC(c3ccc(F)cc3)=NO2)cc1 (stereo unspecified)	-5	0.3	-30	-1%	-3
Cc1ccc(S(=O)(=O)N(C)CC(=O)Nc2ncccc2C)cc1	.	0.5	.	.	-7
